Vaccinia mCherry: vaccinia inhibition (mCherry reporter) | 310,000 tested, 0.63% active | Vaccinia virus mCherry reporter infection, fluorescence; about a quarter of the inactives have no number | Potency, µM (doses to about 36.5 µM), without a hit: top-dose activity change, negative = inhibition, usual class: inhibitors; active = well fitted inhibition curve with a large enough effect; inconclusive = small, poorly fitted or top-dose-only effect; inactive = no such curve, though single readings can be large or run the other way; tested in A549 cells; note: nearly all actives have a fitted effect of over 35% in size; inactives centre near -10
VACV Venus inh: vaccinia inhibition (Venus reporter); 330,000 tested, 0.46% active; Vaccinia virus Venus reporter expression, fluorescence; AID 720580; Potency, µM (doses to about 36.5 µM), for inactives: top-dose activity change, negative = inhibition, most hits filed as inhibitors; active means well fitted inhibition curve with a large enough effect; inconclusive means small, poorly fitted or top-dose-only effect; inactive means no such curve, though single readings can be large or run the other way; tested in A549 cells; note: nearly all actives have a fitted effect of over 30% in size; inactives centre near -10
An asterisk follows results filed as active; i = inactive; u = inconclusive; x = no result given; [ ] = remark or other dose. % is set by controls: 0 for no effect and ±100 for the full control effect; potency is the fitted concentration of half-maximal effect.

smiles | Vaccinia mCherry | VACV Venus inh
O=C(NNC(=O)c1ccccc1O)c1ccc(NS(=O)(=O)c2ccc(F)cc2)cc1 | u | -10%
CC(C)N(CCNCC(O)COc1ccc(C(C)(C)c2ccccc2)cc1)C(C)C (configuration not stated) | -30% | -12%
O=C1CC2C(CCC23OCCO3)c2ccc3ccccc3c21 (configuration not stated) | i | -12%
COc1ccc(NC(=O)CSc2nc(SC)ns2)c(OC)c1 | u | -22%
COc1cc(CNc2ncnc3c2ncn3[C@H]2CN(Cc3ccc(Cl)cc3)C[C@@H](CO)O2)cc(OC)c1OC | i | -15%
Cc1cccc(CN2CCN(C3CN(Cc4cn(Cc5ccc(Cl)cc5)nn4)S(=O)(=O)C3)CC2)c1 (configuration not stated) | -24% | -21%
Oc1ccc(C[C@@H]2CNCCN2CCc2cccc3ccccc23)cc1 | u | u
CC[C@]12c3[nH]c4ccccc4c3CCN1C(=O)C(CC(=O)NCCCN(C)C)C[C@@H]2C(=O)N1CCN(C(=O)C2CC2)CC1 (some centres not stated) | -8% | -13%
CCOC(=O)CCn1nnc(N)n1 | -1% | -2%
O=C(Nc1ccc(-n2cnnn2)cc1)c1cn2ccccc2n1 | i | -12%
COc1cc(C(=O)NCC(c2cccnc2)N2CCc3ccccc3C2)cc(OC)c1OC (configuration not stated) | -13% | -16%
CCCCCC(O)(c1ccc(OC)cc1)C(CN1CCOCC1)c1ccccc1 (configuration not stated) | -26% | -11%
N#CCC(=O)Nc1ccc(C(=O)OCC(=O)C23CC4CC(CC(C4)C2)C3)cc1 | -3% | -18%
O=C(/C=C/c1ccc(F)cc1)NNC(=O)CCN1CCN(Cc2ccccc2)CC1 | 11µM* | u
COC(=O)c1ccc(CSc2nnc(NC(=O)c3cc4c(s3)CCCC4)s2)cc1 | -7%[1.46 µM] | -27%
CC(C)(C)c1ccc(C(=O)Nc2ccc(Cl)cc2)cc1 | -13% | -15%
COc1ccccc1OCC(=O)NC1CCCc2ccccc21 (configuration not stated) | i | -5%
COc1ccccc1N1CCN(C2CCCN(C(=O)COc3ccccc3Cl)C2)CC1 (configuration not stated) | -26% | -13%
COc1ccccc1NC(=O)NNC(=O)CCN1CCOCC1 | -14% | -11%
O=C(CCC(=O)NNC(=O)Nc1ccc(Cl)cc1)NCc1ccccc1 | -2% | -16%
O=C(NC12CC3CC(CC(C3)C1)C2)N1CCC(O)CC1 | x | -9%
C/C=C/c1ccc(OCC(=O)OCC(=O)Nc2c(C)nn(-c3ccccc3)c2C)c(OC)c1 | -1% | -19%
O=C(NC(=S)NNC(=O)c1cc2ccccc2cc1O)c1ccco1 | -15% | -18%
Cc1ccc(C)c(Cn2c(=O)n(Cc3ccccc3)c(=O)c3sc4ccccc4c32)c1 | -12% | -4%
CCNC(=O)C1(C)CCN(C(=O)c2ccc(OC(F)F)cc2)C1 (configuration not stated) | -11% | -7%
Cc1nc(C(=O)N2CCCC(Nc3ccc(C)c(C)c3)C2)cs1 (configuration not stated) | u | -1%
O=C(NC(=O)c1ccccc1)C1=C(N2CCCC2)COC1=O | i | -15%
Cc1cccc(N2C(=S)NC3c4cc(Cl)ccc4OC2(C)C3C(=O)N(C)C)c1 (configuration not stated) | i | -18%
COc1ccc(-n2c(SCc3ccccc3F)nc3c([nH]c4ccccc43)c2=O)cc1OC | -29% | -27%
Cc1ccc(/C=C2\SC(=S)N(CCC(=O)NCCCN3CCOCC3)C2=O)cc1 | u | u

Three structures out of the list, sorted by number of heavy atoms, lowest first:
smiles | Vaccinia mCherry | VACV Venus inh
O=C(NC(=O)c1ccccc1)C1=C(N2CCCC2)COC1=O | i | -15%
O=C(NC(=S)NNC(=O)c1cc2ccccc2cc1O)c1ccco1 | -15% | -18%
Cc1ccc(C)c(Cn2c(=O)n(Cc3ccccc3)c(=O)c3sc4ccccc4c32)c1 | -12% | -4%

Next section
smiles | Vaccinia mCherry | VACV Venus inh
O=C(O)C(Oc1ccc2c(-c3ccccc3)cc(=O)oc2c1)c1ccccc1 (configuration not stated) | -12% | -11%
c1ccc2c(c1)OCCOCCOCCOCCOc1ccccc1OCCOCCOCCO2 | -9% | -13%
CCNC(=O)C1(C)CCN(Cc2ccccc2-c2ccccc2)C1 (configuration not stated) | 44%[activator] | 11%
CC(=O)c1ccc(NC(=O)CSc2nnc(C3CC3)n2C2CC2)cc1 | -13% | -17%
COc1ccc(NC(=O)N2CCN(CCC#N)CC2)cc1 | -15% | -10%
CC(C)(C)n1nnnc1C(c1ccc2ncccc2c1)N1CCSCC1 (configuration not stated) | i | -6%
CCOCCCNC(=S)N1CCN(Cc2ccc3c(c2)OCO3)CC1 | i | -10%
Cc1ccc(N=C2SC(C(=O)O)CC(=O)N2C)cc1C (configuration not stated) | -4% | 9%
O=C(CN(C(=O)CCC(=O)Nc1nccs1)c1ccc2c(c1)OCO2)NCC1CCCO1 (configuration not stated) | x | -6%
CNc1cncc(C(=O)O)c1 | i | 8%
Cc1ccc(S(=O)(=O)N2CCC(C(=O)OC(C)C(=O)NCc3ccccc3)CC2)cc1C (configuration not stated) | i | -8%
CCn1c(SCC(=O)Nc2cccc(C)n2)nnc1-c1ccco1 | -9% | 2%
Cc1ccc(C)c(N2CCN(C(=O)NCc3noc4ccccc34)CC2)c1 | -4% | -10%
CCOC(=O)C(NC(=O)CC)(N1CCc2ccccc2C1)C(F)(F)F (configuration not stated) | -6% | -15%
O=C(CCc1c[nH]c2ccccc12)NCc1ccc2c(c1)OCO2 | -8% | 0%
CCOc1ccc2nc(SCc3cccc(C)c3)nc(C)c2c1 | -10% | -6%
N/C(Cc1cccs1)=N\OC(=O)COc1ccccc1 | x | u
NS(=O)(=O)c1ccc(NC(=O)CCC2CCCCC2)cc1 | -18% | -5%
O=C(NNC(=O)c1ccc2nonc2c1)Nc1ccc(Cl)cc1 | -25% | 5%
O=C1CCC([N+](=O)[O-])C(c2ccc(C(F)(F)F)cc2)N1 (configuration not stated) | 0% | -11%
O=C(NCc1nc2ccccc2[nH]1)C1CCCCC1 | i | -8%
COC(=O)C1=C(N)Oc2cc(C)[nH]c(=O)c2C1c1cccnc1 (configuration not stated) | -17% | -5%
Nc1ccc(-c2ccc(N)cc2)cc1 | -9% | 11%
CCCCC1CC(=O)NC1(C(=O)OCC)C(=O)OCC (configuration not stated) | -17% | -8%
COc1ccccc1CNc1nc(NCc2cccc(OC)c2OC)c2sccc2n1 | -10% | -13%
COc1ccc(C(=O)OCC(=O)c2ccc(Cl)s2)c(OC)c1OC | -22% | -8%
CCOC(=O)c1sc(NC(=O)C2CC2)nc1C | -18% | -14%
Cc1cccc(NC(=O)CCc2ccc(N3C(N)=NC(N)=NC3(C)C)cc2)c1 | 5.6µM* | u
CCCOc1ccc(CNC(=O)c2ccc(-n3c(C)cc4c3CCC(C)C4)cc2)cc1 (configuration not stated) | i | -3%
NS(=O)(=O)c1ccc(NNC(=O)c2ccc(F)cc2F)cc1 | -13% | -1%
CCCCCCCCCCCCN1[C@@H](CC(=O)OC)c2cc(F)cc(F)c2S1(=O)=O | -4% | -4%
CCOc1ccc(-c2cc(C(=O)NN=C3CCN(C)CC3)[nH]n2)cc1 | -22% | -20%
Cn1ccc2c(-c3cccnc3)cc3c(c21)C1CCC3C1 (configuration not stated) | 8% | 7%
CCOC(=O)c1c[nH]c2c(Cl)ccc(Cl)c2c1=O | x | u
O=C(NCc1ccccc1)c1ccc2nc(-c3ccco3)c(-c3ccco3)nc2c1 | -9% | -4%
CCCCN(C(=O)c1cc2c(s1)CCC2)c1c(N)n(CCCC)c(=O)[nH]c1=O | -12% | 8%
COc1ccc(NS(=O)(=O)c2cnc(N)nc2)cc1Cl | -16% | -6%
On1nnc2ccc3ccccc3c21 | -13% | -6%
COc1cccc(-n2cc(C(=O)NCc3cccc(Cl)c3)c3ccccc3c2=O)c1 | -12% | -6%
COc1cccc(CC(=O)OC(C)C(=O)NCc2ccc3c(c2)OCO3)c1 (configuration not stated) | -7% | -6%
N#CC(C(=O)NC1CC1)c1nc2ccccc2nc1N1CCN(C/C=C/c2ccccc2)CC1 (configuration not stated) | x | 7%
Cc1ccc(-c2nc3c4ccccc4ccn3c2CC2CCCCC2)cc1 | 4% | -2%
C[C@]12CCC3C(CCC4=CC(O)CC[C@@]43/C=N/O)C1(O)CCC2C1=CC(=O)OC1 (some centres not stated) | u | 0.32µM*
CCN(CC)CCn1c(NCc2ccc(C)o2)nc2ccccc21 | -19% | -19%
Cc1cc(-c2ccc(Cl)cc2Cl)c(C#N)c(=O)[nH]1 | i | 3%
CCCCN(C)C(=O)Cn1cnc2sc(C)c(S(=O)(=O)N3CCC(C)CC3)c2c1=O | -12% | -22%
O=C(O)c1c(C(=O)N2N=C3/C(=C/c4ccccc4)CCCC3C2c2ccccc2)cccc1[N+](=O)[O-] (configuration not stated) | 16% | 3%
CC(=O)NC(Cc1ccc(C)cc1)C(=O)NC1CCN(C(=O)c2ccc([N+](=O)[O-])cc2)CC1 (configuration not stated) | i | -17%
CCNC(=O)C1(C)CCN(C(=O)c2c(F)cccc2F)C1 (configuration not stated) | 10% | 0%
Cc1cccc(C(=O)OCC(=O)NC(=O)NC2CCCCC2)c1 | -1% | -14%
COc1cc(C(=O)NCc2cn3ccsc3n2)cc(OC)c1OC | -6% | -8%
COC(=O)c1cccc(NC(=O)CSc2nnc(-c3ccco3)o2)c1 | -13% | 1%
CC(=O)Nc1ccc(S(=O)(=O)Oc2ccc(C=O)cc2)cc1 | i | -12%
CC(C)c1ccc(C2(C)NC(=O)N(CC(=O)NCC3COc4ccccc4O3)C2=O)cc1 (configuration not stated) | i | -25%
C[C@H](CO)N1C[C@H](C)[C@@H](CN(C)C(=O)Nc2ccc(C(F)(F)F)cc2)Oc2ccc(NS(=O)(=O)c3cn(C)cn3)cc2C1=O | -4% | -7%
CC1(C)Oc2ccc(C(=O)NN)cc2NC1=O | i | -4%
COc1ccc(NC(=O)c2ccc(-c3ccc(C)c4ccccc34)o2)cc1 | -13% | -22%
CC1CCN(C(=O)CSc2ccc(-c3ccccc3)nn2)CC1 | i | -5%
COC(=O)c1cccc(NC(=O)/C(=C\c2ccccc2)NC(=O)c2ccccc2Cl)c1 | i | -2%
COC(=O)c1cccc(NC2=NS(=O)(=O)c3ccccc32)c1 | -16% | -2%

New compounds follow
smiles | Vaccinia mCherry | VACV Venus inh
COc1ccc(-c2nc3scc(CCNS(=O)(=O)c4ccc(Oc5ccccc5)cc4)n3n2)cc1 | -15% | -21%
COC(=O)CC1(Cc2ccccc2)C(=O)NC(=O)NC1=O | x | -11%
CCCCN(C)C(=O)C(Cc1ccccc1)NS(=O)(=O)c1ccc2c(c1)CCC(=O)N2 (configuration not stated) | 54%[activator] | -1%
COc1cccc(C(=O)NC(=S)Nc2ccc(Cl)cc2C(=O)O)c1 | -15% | -12%
CCc1c(O)nc(SCC(=O)Nc2ccccc2OC)n(-c2ccccc2C)c1=O | -14% | -12%
Cc1ccc(CN2CC(N3CCN(Cc4cccc(C)c4)CC3)CS2(=O)=O)cc1 (configuration not stated) | i | -7%
CCOC(=O)CSc1nnc([C@H](CC(C)C)NC(=O)OC(C)(C)C)o1 | x | -13%
CC1CCN(C(=O)c2ccc(N3CC4CC(C3)c3cccc(=O)n3C4)c([N+](=O)[O-])c2)CC1 (configuration not stated) | -1% | -13%
COc1cc(OC)cc(C(=O)NC(=S)N2C[C@H]3C[C@H](C2)c2cccc(=O)n2C3)c1 | -15% | -8%
Cc1ccc(-c2nc(SCC(=O)NCC3CCCO3)c3c(=O)n(C)c(=O)n(C)c3n2)cc1 (configuration not stated) | 3% | -9%
O=C(O)c1cnc2[nH]c3ccccc3n2c1=O | -13% | -17%
CCc1ccccc1NC(=O)CN(C)C(=O)CSc1nnc(Nc2cccc(C)c2)s1 | -7% | -3%
CCCCCC(C(=O)O)C(C)CC(=O)NC1CCCCC1 (configuration not stated) | x | -11%
COc1ccc(-n2nc(C(=O)NCC(=O)N3CCCC3)c3ccccc3c2=O)cc1 | 6% | -4%
Cc1nc(-c2ccc(C)c(S(=O)(=O)N3CCC(C(=O)NCc4ccc(F)cc4)CC3)c2)no1 | -18% | -21%
CC(=O)c1sc(N/N=C\c2ccc(C)cc2)nc1C | -8% | 2%
CCC/C=C1/CCCOC(C(=O)NCCNCCO)(C(F)(F)F)C1 (configuration not stated) | -2% | -13%
O=C(NCc1ccccc1)C(c1ccccc1)n1c(-c2ccncc2)nc2ccccc21 (configuration not stated) | -6% | -11%
Cc1ccc(C)c(CN2C(=O)c3ccccc3S(=O)c3ccc(C(=O)NCc4ccccc4Cl)cc32)c1 (configuration not stated) | -12% | -14%

Structures above containing a cyano group:
smiles | Vaccinia mCherry | VACV Venus inh
N#CCC(=O)Nc1ccc(C(=O)OCC(=O)C23CC4CC(CC(C4)C2)C3)cc1 | -3% | -18%
COc1ccc(NC(=O)N2CCN(CCC#N)CC2)cc1 | -15% | -10%
N#CC(C(=O)NC1CC1)c1nc2ccccc2nc1N1CCN(C/C=C/c2ccccc2)CC1 (configuration not stated) | x | 7%
Cc1cc(-c2ccc(Cl)cc2Cl)c(C#N)c(=O)[nH]1 | i | 3%
